TSHR ag: activates the human thyroid stimulating hormone receptor | P16473 | HEK293-CNG-TSHR cells (CNG channel as cAMP sensor), membrane potential dye, cAMP | Potency, µM (top dose mostly 57.1 µM), inactives show at the highest dose activation, most hits filed as activators | 73,000 compounds, 0.48% hits | AID 926; active = well fitted activation curve of enough size with the parental cells flat; inconclusive = any curve in the parental cells; inactive = parental cells flat and receptor cells flat or falling; note: potency is the fitted concentration of half-maximal effect; % of control where 0% means no effect; weak receptor curves with flat parental cells got no call and are not listed
Target sequence (P16473 whole entry, looked up): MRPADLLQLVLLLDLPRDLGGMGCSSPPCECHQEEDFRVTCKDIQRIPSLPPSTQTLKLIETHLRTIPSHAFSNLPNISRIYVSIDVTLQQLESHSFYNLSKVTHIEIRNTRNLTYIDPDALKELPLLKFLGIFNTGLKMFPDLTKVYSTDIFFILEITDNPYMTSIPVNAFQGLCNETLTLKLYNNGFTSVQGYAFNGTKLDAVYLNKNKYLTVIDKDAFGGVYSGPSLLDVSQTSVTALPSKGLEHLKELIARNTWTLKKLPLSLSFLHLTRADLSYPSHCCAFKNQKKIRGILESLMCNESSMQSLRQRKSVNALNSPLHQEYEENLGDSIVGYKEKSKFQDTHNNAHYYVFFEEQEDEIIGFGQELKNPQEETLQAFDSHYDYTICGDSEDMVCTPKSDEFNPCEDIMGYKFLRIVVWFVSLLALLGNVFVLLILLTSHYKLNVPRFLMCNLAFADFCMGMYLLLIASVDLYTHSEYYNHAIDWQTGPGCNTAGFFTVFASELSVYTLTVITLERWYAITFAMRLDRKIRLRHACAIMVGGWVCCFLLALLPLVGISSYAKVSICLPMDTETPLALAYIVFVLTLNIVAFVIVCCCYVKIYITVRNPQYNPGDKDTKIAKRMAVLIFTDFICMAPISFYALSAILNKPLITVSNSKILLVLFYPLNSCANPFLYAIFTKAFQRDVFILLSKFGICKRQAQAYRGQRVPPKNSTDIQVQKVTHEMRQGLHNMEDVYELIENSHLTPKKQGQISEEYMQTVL
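cAMP rise detected as CNG-channel membrane depolarization by fluorescent dye (emission 590 nm), 30 min after compound, following 60 min dye loading containing 100 uM RO 20-1724 at room temperature. Cells: TSHR/CNG HEK 293, with parental CNG HEK 293 as control.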
A488 autofl: compound autofluorescence in A488 spectral region. compound autofluorescence, A488 spectral region, dye equivalency; hits give high values. max dye equivalency, M. 59,000 compounds, 0.1% hits; active = above 10 nM dye equivalent; inconclusive = 1 to 10 nM; inactive = 1 nM or less; about half of its hits are not listed in these tables;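 note: highest value over a series up to 38 µM; compound alone in buffer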
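Compounds pin-transferred into 100 mM Tris buffer, pH 8.0, incubated 15 min at room temperature, then imaged with 480 nm excitation/540 nm emission filters. Fluorescence converted to Alexa 488 dye-equivalent concentration via an on-plate six-point A488 standard curve.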
AID923: qHTS Assay for Allosteric/Competitive Inhibitors of Caspase-1: Spectroscopic Profiling in AFC Spectral Region. 75,000 compounds, 1.1% hits. compound fluorescence, AFC spectral region (405/520 nm); almost no hit is shown here. Potency, µM (doses to about 57.5 µM), inactives show at the highest dose fluorescence increase, most hits filed as activators. AID 923, 2007; active = well fitted activation curve with a large enough effect; inconclusive = small, poorly fitted or top-dose-only effect;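 note: potency is the fitted concentration of half-maximal effect; 0% is about no effect; scaled to a free AFC standard on each plate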
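Compound autofluorescence profiled at 405 nm ex/520 nm em during kinetic caspase 1 run (50 nM enzyme, 5 uM Ac-WEHD-AFC, HEPES pH 7.5, 10 mM DTT). Titration up to 57 uM; baseline from regression intercept, normalized to AFC standard curve.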
Resorufin autofl: resorufin region autofluorescence | 59,000 compounds, 0.04% hits | Compound fluorescence, resorufin region 547/598 nm, buffer; hits give high values | max dye-equivalent concentration, M | AID 588; active = above 10 nM dye equivalent; inconclusive = 1 to 10 nM; inactive = 1 nM or less; a few of its hits are not listed in these tables; note: highest value over a series up to 38 µM
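Intrinsic fluorescence profiled in the resorufin window (ex 547 nm, em 598 nm) after 15 min at room temperature in pH 8.0 Tris buffer (100 mM); responses normalized against a six-point resorufin standard series as dye-equivalent concentration.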
A647 autofl: A647 region autofluorescence; AID 592; Compound fluorescence, A647 channel (570/671 nm), Tris buffer; max dye-equivalent concentration, M; 59,000 tested, under 10 active; active means above 1 µM dye equivalent; inconclusive means 0.1 to 1 µM; inactive means 0.1 µM or less;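 note: values scaled relative to a standard on each plate; highest value over a series up to 38 µM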
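Spectral profiling of library compounds in pH 8.0 Tris: 15 min room-temperature incubation, single ex/em pair (570/671 nm), response normalized to Alexa 647 equivalents.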
Numbers without * were called inactive; i = inactive; ? = inconclusive; · = not tested or not shown; & = joins results of further samples; [ ] = remark or other dose.

Structure,TSHR ag,A488 autofl,AID923,Resorufin autofl,A647 autofl
O=C(O)C1CCCCC1C(=O)NCc1ccc(F)cc1 (stereo not drawn),-17%,i,-1.6%,i,1e-09
O=C(CCN1CCOCC1)Nc1ccc2c(c1)N(C(=O)CN1CCOCC1)c1ccccc1CC2,2%[11.4 µM],i,2.7%,i,5.9e-09
COc1ccc2[nH]cc(CCNc3ccnc(-c4ccccc4Cl)n3)c2c1,2%,i,9.7%,i,1e-09
CC1CCN(S(=O)(=O)c2cccc(-c3nnc(-c4cccnc4)o3)c2)CC1,22%,i,-1.2%,i,8.3e-09
Cn1c(NCc2c[nH]c3ccccc23)nc2ccccc21,-3%,i,0.3%,i,1e-09
Cc1ccc(SCCN2C(=O)NC(C)(C)C2=O)cc1,0%,i,-0.2%,i,2.9e-09
CCn1c(SCC(=O)N2CCCC2)nc2c1c(=O)n(C)c(=O)n2C,-1%,i,0.2%,i,1e-09
Cc1ccc(CNC(=O)CCCOc2cc(=O)n(C)c3ccccc23)o1,1%[11.4 µM],i,0.0%,i,1.8e-08
CC(NC(=O)C1CC=CCC1C(=O)O)C1CC2CCC1C2 (stereo not drawn),1%,i,1.2%,i,2.3e-08
CC1=C(C(=O)OC(C)C)C(c2cccs2)n2ncnc2N1 (stereo not drawn),6%,·,-1.4%,·,·
c1ccc2c(c1)CCN(c1nc3cc4c(cc3s1)OCCO4)C2,-14%,i,-0.5%,i,4.7e-08
CCN(CC)C(c1ccc(F)cc1)c1nnnn1C1CCCCC1 (stereo not drawn),7%,i,0.5%,i,1e-09
O=C(c1ccncc1)N1CCC[C@@]2(CCN(c3cccc(-c4ccccc4)c3)C2)C1,21%,i,-0.5%,i,3e-08
ON=C1/C(=N\O)CC2(C/C1=N/O)OCCO2,1%,·,2.2%,·,·
CC(C)N(C=O)C1(C(=O)NC2CCCCC2)CCCCC1,13%,i,0.8%,i,4.7e-08
CCCC(NS(=O)(=O)c1ccc(Br)cc1)C(=O)O (stereo not drawn),?,·,-0.8%,·,·
CC(C)N(Cc1nc(-c2ccc(Cl)cc2)no1)C(=O)C12CC3CC(CC(C3)C1)C2,·,i,0.9%,i,1e-09
CCCN1C(=O)C(O)(CC(=O)c2ccc3c(c2)OCCO3)c2ccccc21 (stereo not drawn),-11%,i,-0.4%,i,1.5e-09
COc1cccc(-c2nc(CS(=O)(=O)CC(=O)Nc3cccc(C)c3C)c(C)o2)c1,?,·,3.4%,·,·
Cc1ccc(N2CC(C(=O)NC3CCSC3=O)CC2=O)cc1 (stereo not drawn),-2%,i,0.3%,i,2.4e-08
COc1ccc(N2C(=O)CC(N(Cc3ccc(S(N)(=O)=O)cc3)C(C)=O)C2=O)cc1 (stereo not drawn),·,i,·,i,1e-09
CCCOc1cccc(C(=O)Nc2cccnc2)c1,?,·,-1.4%,·,·
CN1CCN(C(=O)c2ccccc2-c2nc(-c3ccccc3)no2)CC1,19%,i,-1.0%,i,4e-09
CCOc1ccc(C(=O)O)cc1OC,?,i,-1.5%,i,1.4e-09
Cc1nc(NS(=O)(=O)c2ccccc2)sc1NC(=O)OCCN(C)C,·,i,·,i,2.6e-08
O=C(NCN1CCN(c2ccccc2F)CC1)c1ccccc1,1%,i,-0.4%,i,2.3e-09
CCOC(=O)N1CCN(C(=O)Cn2nc(-c3ccc(Cl)cc3)ccc2=O)CC1,2%,i,1.8%,i,3.1e-08
O=C(CCC(=O)c1cccs1)OCC(=O)N1CCN(S(=O)(=O)c2ccccc2)CC1,1%,i,-0.5%,i,4.4e-09
N#CCCn1cnc2ccccc21,0%,i,0.8%,i,1.1e-09
CCCCCCn1c(C(C)NC(=O)c2ccco2)nc2ccccc21 (stereo not drawn),?,i,2.3%,i,1.9e-09
C=CCn1c(=N)n(CC(=O)O)c2ccccc21,5%,i,-0.6%,i,2.7e-08
Cc1ccc(S(=O)(=O)N(C)c2ccc(C(=O)N3CCC(C(N)=O)CC3)cc2)cc1,5%,i,0.2%,i,1e-09
O=C1CC(Nc2ccc(N3CCOCC3)cc2)C(=O)N1c1ccccc1F (stereo not drawn),-2%,·,11%,·,·
COc1ccc(OC)c2[nH]c(=O)c(CCNC(=O)C3CCCCC3)cc12,-1%,i,1.3%,i,1e-09
COc1ccccc1C(=O)NC(C)c1nc2ccccc2[nH]1 (stereo not drawn),?,i,-0.4%,i,1e-09
COc1ccc(OCC2Cc3c(-c4ccccc4)nc4c(c3CO2)CN(CCOc2ccccc2)CC4)cc1 (stereo not drawn),11%[11.4 µM],·,0.2%[11.5 µM],·,·
O=C(Nc1ccccc1C(=O)N1CCN(Cc2ccccc2)CC1)c1ccccn1,10%,·,-2.3%,·,·
CC(C)[C@@H]1NC(=O)N(c2ccc(Oc3ccccc3)cc2)C1=O,-3%,i,1.6%,i,2.4e-09
O=C(CSc1nnc(Cc2cc(=O)[nH]c(=O)[nH]2)n1-c1ccccc1)N1CCCc2ccccc21,0%,i,-3.4%,i,4.9e-08
CCCCS(=O)(=O)NC1=NCN(CCO)CN1,-2%,i,-0.2%,i,1e-09
COc1cc(CN2CCC(C(=O)NC3CCCC3)CC2)cc(Br)c1O,-2%,i,-4.0%,i,5.4e-09
Cc1cccc(Cn2c(SCCN3CCOCC3)nc3c2c(=O)n(C)c(=O)n3C)c1,0%[11.4 µM],·,0.6%,·,·
CCc1nc(NCC(C)C)c(C#N)c2c1COC(C)(C)C2,·,i,·,i,8.9e-08
COc1ccc(C(C(=O)NC2CCCC2)N(CCN(C)C)C(=O)c2snc(C(N)=O)c2N)cc1 (stereo not drawn),6%,i,2.1%,i,1e-09
O=C1OCc2cc(NC(=O)C3CCCCC3)ccc21,-3%,i,-2.3%,i,9.8e-09
C=CCSc1nnc(-c2ccncc2)n1-c1ccc(OCC)cc1,·,i,-1.4%,i,1e-09
O=C(C1CCC(CNc2nc(=S)[nH]c3ccccc23)CC1)N1CCN(c2ccccn2)CC1 (stereo not drawn),21%,i,-0.6%,i,1e-09
CCOC(=O)c1cc2sc(C)cc2n1C(C)C(=O)OCC (stereo not drawn),?,i,0.6%,i,7.1e-09
CCCCn1cnc2c(SC)ncnc21,·,i,2.0%[11.5 µM],i,1e-09
O=C1C(=O)N(Cc2cccnc2)C(c2ccccn2)/C1=C(/O)c1ccc(F)cc1 (stereo not drawn),·,i,·,i,1.2e-08
O=C(CCN1CCN(C(=O)c2ccco2)CC1)Nc1ccc(F)cc1,5%,i,1.6%,i,4.7e-09
O=C(CCc1nc(-c2ccccc2F)no1)NCc1ccco1,·,i,-2.3%,i,3.3e-08
Cc1ccccc1Cn1nc(C)c(NC(=O)c2cc3n(n2)C(C(F)F)CC(C(F)F)N3)c1C (stereo not drawn),-18%,i,1.5%,i,1e-09
COc1ccc(C=NCCC2(O)CC(C)N(C)CC2C)cc1 (stereo not drawn),·,i,·,i,4.9e-09
c1cc(-c2nnc(-c3ccncc3)o2)ccn1,-12%,·,0.4%,·,·
COCCN(CCOC)S(=O)(=O)c1ccc(C(=O)Nc2nnc(C3CC3)o2)cc1,4%,i,0.1%,i,1e-09
Cc1nn(CC(=O)O)c2ccccc12,3%,i,0.9%,i,2.7e-08
CSC1=NCCN1C(=O)c1c(-c2ccccc2Cl)noc1C,12%,·,2.1%,·,·
O=C(CSc1nnc(-c2ccncc2)n1Cc1ccco1)c1ccc(Cl)cc1,?,i,0.7%,i,1e-09
CN1CCN(c2nc3ccccc3nc2C(C#N)C(=O)OC2CCCCC2)CC1 (stereo not drawn),?,i,3.9%,i,2.7e-09

Carrying on:
Structure,TSHR ag,A488 autofl,AID923,Resorufin autofl,A647 autofl
COCCNC(=O)Cn1cc2c(n1)CCC(C)C2 (stereo not drawn),3%,·,-1.3%,·,·
COc1ccc(Br)cc1CNC(=O)C1CCN(S(=O)(=O)N2CCCCC2)CC1,0%,i,-0.3%,i,1e-09
Cn1c(-c2ccc(F)cc2)cnc1SCC(=O)N1CCCCC1,1%,i,-1.0%,i,1e-09
CC(C)(C)NC(=O)Cn1c(=O)oc2cc(S(=O)(=O)N3CCc4ccccc43)ccc21,-13%,·,2.3%,·,·
N#Cc1cc(Sc2ccccn2)c(Sc2ccccn2)cc1C#N,-3%[11.4 µM],·,1.9%,·,·
COc1ccc(S(=O)(=O)Cc2ccc(C(=O)NCCc3ccc(S(N)(=O)=O)cc3)o2)cc1,0%,·,0.9%,·,·
c1coc(-c2nnc(NC3=NCCC3)o2)c1,1%,i,-0.3%,i,5.3e-08
CN=C(Nc1cc(C)nn1CCC#N)c1ccccc1F,1%,i,-0.2%,i,2.1e-08
COc1ccc(/C(O)=C2/C(=O)C(=O)N(CCCN(C)C)C2c2cccc(Cl)c2)cc1OC (stereo not drawn),·,i,·,i,1e-09
Cc1nc2scc(-c3cccs3)c2c(=O)n1-n1cccc1,?,·,-2.6%,·,·
Cc1cccc2cc(CN(Cc3ccco3)C(c3nnnn3CCc3ccccc3)C(C)C)c(=O)[nH]c12 (stereo not drawn),17%,i,-0.3%,i,4.4e-09
O=C(Cn1ncn2c(cc3ccccc32)c1=O)NCc1ccco1,?,i,2.8%,i,2.7e-08
Cc1nc2sccn2c(=O)c1CCN1CCC(=C(c2ccc(F)cc2)c2ccc(F)cc2)CC1,-45%[inhibitor],i,-3.0%,i,1.6e-09&2.5e-09
CC(=O)c1ccc(N2CCN(C(=O)COc3ccc(F)cc3)CC2)c(F)c1,4%,·,1.8%,·,·
CC1CCCN(Cc2nc3c(c(=O)n(C)c(=O)n3C)n2CC(N)=O)C1 (stereo not drawn),0%,i,-1.1%,i,4.2e-08
c1ccc(CN2CCN(c3nc(-c4ccccn4)nc4ccccc34)CC2)cc1,·,i,·,i,1.7e-09
COC(=O)c1nnn(-c2nonc2N)c1CSc1nc2ccccc2s1,?,i,-0.2%,i,1e-09
Cn1c(=O)c2[nH]c(-c3ccc(S(=O)(=O)O)cc3)nc2n(C)c1=O,3%,i,-1.9%,i,8.9e-09
O=C(CSc1nnc(-c2ccc(Cl)cc2)n1Cc1ccco1)c1cccs1,?,i,-0.9%,i,1.3e-08
N#CC1(c2nc3ccccc3[nH]2)CC1c1ccc2c(c1)OCO2 (stereo not drawn),-1%,i,0.0%,i,1e-09
COc1ccc(C(=O)N(CC(=O)NC(C)(C)C)c2ccc3c(c2)OCCO3)cc1OC,1%,i,0.1%,i,2.1e-09
COc1ccc(C2(CNC(=O)CCC(=O)O)CCCC2)cc1,-2%,i,2.9%,i,3.6e-08

One compound at a time, from the list above. Order of screens: TSHR ag, A488 autofl, AID923, Resorufin autofl, A647 autofl
Listed for `Cc1nc2sccn2c(=O)c1CCN1CCC(=C(c2ccc(F)cc2)c2ccc(F)cc2)CC1` = -45%[inhibitor], i, -3.0%, i, 1.6e-09&2.5e-09
Listed for `COc1ccc(Br)cc1CNC(=O)C1CCN(S(=O)(=O)N2CCCCC2)CC1` = 0%, i, -0.3%, i, 1e-09

Looked up above.
COC(=O)c1nnn(-c2nonc2N)c1CSc1nc2ccccc2s1 in A647 autofl is listed with 1e-09
COCCNC(=O)Cn1cc2c(n1)CCC(C)C2 (stereo not drawn) in TSHR ag is listed with 3%
O=C(CSc1nnc(-c2ccc(Cl)cc2)n1Cc1ccco1)c1cccs1 in A647 autofl is listed with 1.3e-08
COc1ccc(C(=O)N(CC(=O)NC(C)(C)C)c2ccc3c(c2)OCCO3)cc1OC in TSHR ag is listed with 1%

From PubChem

Some of the compounds tested; the hit share may differ from the screen's.
